Screening results (PubChem)
Vaccinia Venus = vaccinia inhibition (Venus reporter). AID 720580. Potency, µM (titrated, usually from 36.5 µM), for inactives: at the highest dose activity change, negative = inhibition, usual class: inhibitors. 330,000 compounds, 0.46% hits. Vaccinia virus Venus reporter expression, fluorescence; active means well fitted inhibition curve with a large enough effect; inconclusive means small, poorly fitted or top-dose-only effect; inactive means no such curve, though single readings can be large or run the other way; tested in A549 cells; also: nearly all actives have a fitted effect of over 30% in size; inactives centre near -10
VACV mCherry inh = vaccinia inhibition (mCherry reporter) | Vaccinia virus mCherry reporter infection, fluorescence; about a quarter of the inactives have no number | Potency, µM (highest dose often 36.5 µM), inactives show top-dose activity change, negative = inhibition, actives largely listed as inhibitors | 310,000 compounds, 0.63% hits; active = well fitted inhibition curve with a large enough effect; inconclusive = small, poorly fitted or top-dose-only effect; inactive = no such curve, though single readings can be large or run the other way; tested in A549 cells; also: nearly all actives have a fitted effect of over 35% in size; inactives centre near -10
* marks the source's active call; other numbers are inactive results; i = inactive; ? = inconclusive; . = not tested or not shown; [ ] = another dose, or the depositor's remark. % is scaled to controls: 0 for no effect and ±100 for the full control effect; potency is read from the fitted curve at half-maximal effect. Rows were taken by chance; about 0.88% have a hit in one of these screens.

SMILES | Vaccinia Venus | VACV mCherry inh
COc1ccc(-c2ccc(CN3C(C)C(=O)N(Cc4cn(CCC5OCCO5)nn4)CCS3(=O)=O)cc2)cc1OC (configuration not stated) | -15% | -14%
Cc1ccc(-c2nc3ccccn3c2NC(=O)c2ccco2)cc1 | -7% | -14%
CCOc1ccc(NC(=O)COC(=O)C23CC4CC(CC(C4)C2)C3)c([N+](=O)[O-])c1 | -20% | -9%
CN(CCc1ccccn1)C1CCCN(S(=O)(=O)c2ccc(F)c(Cl)c2)C1 (configuration not stated) | -17% | ?
CC(/C=C/c1ccccc1F)=N\NC(=O)c1ccc(Cl)cc1 | -2% | -16%
N#C/C=C\Oc1ccc(Cl)cc1N | -15% | ?
COc1ccc(N(C)C(=O)c2cc3c(s2)-c2c(C)cccc2OC3)c(OC)c1 | -4% | -1%
N#Cc1sc(NCc2ccccn2)nc1Cl | 9% | -2%
O=C(CCc1ccccn1)N1CCCC(CNS(=O)(=O)c2cccs2)C1 (configuration not stated) | -14% | -22%
CCCn1c(=N)c(C(=O)NCc2ccccc2)cc2c(=O)n3cccc(C)c3nc21 | -13% | -3%
CCN(CC)CCCN=Cc1c(O)n(Cc2ccc(F)cc2)c(=O)[nH]c1=O | -1% | .
Cc1ccc(NC(=O)c2ccc(N3C(=O)C4CC=C(Cl)CC4C3=O)cc2)cc1 (configuration not stated) | -9% | -17%
CCN(CC)c1ccc(C(=O)NCc2ccc3c(c2)CCN3C(=O)c2ccccc2)cc1 | -12% | -19%
CCN(CC(=O)Nc1ccc2c(c1)OCCO2)C(=O)CC(NC(C)=O)c1ccccc1 (configuration not stated) | -11% | i
COc1cc(OC)c(/C=C2\C(=O)Nc3ccccc32)c(OC)c1 | ? | ?
N#CC(C(=O)c1ccccc1)=C1SCCS1 | -15% | -14%
CCCn1nc(C(=O)N(C)CC(=O)Nc2ccc(OCC)c(OCC)c2)c2ccccc2c1=O | -16% | -1%
O=C(O)C(Cc1ccccc1)N1C(=O)/C(=C/c2cccnc2)SC1=S (configuration not stated) | -2% | -5%
CCOC(=O)CNC(c1ccccc1)c1cc(Br)ccc1NC(=O)OCC (configuration not stated) | -11% | -12%
COc1cc(C(CCN2CCCCC2)c2c(OC)cc(OC)c3c(-c4ccccc4)cc(=O)oc23)cc(OC)c1OC (configuration not stated) | ? | -6%
COc1cc2c3cc1Oc1cc(ccc1O)C[C@@H]1c4c(cc(OC)c(O)c4Oc4ccc(cc4)C[C@H]3N(C)CC2)CCN1C | -17% | i
CC(C)N1CCC(N2CCN(C3CCCC3)CC2CCO)CC1 (configuration not stated) | -6% | -8%
O=C(NNC1=Nc2ccccc2SC1)c1ccccc1F | ? | -2%
CCOC(=O)c1sc(C)c2c(=O)n(CCc3ccccc3)nnc12 | -3% | .
CN(C)c1cccc(C(=O)n2cc(C(=O)c3cc(F)ccc3O)cn2)c1 | -10% | i
OC[C@H]1O[C@@H](n2cnc3c(N[C@H]4C[C@H]5CC[C@@H]4C5)ncnc32)[C@H](O)[C@@H]1O | -12% | -15%
Cc1cc(=O)n(Cc2ccco2)c(=S)[nH]1 | 0% | i
O=C(OCC(=O)N1CCc2ccccc21)c1ccccc1 | -11% | .
CN(C)c1ccc(C=NNC(=S)Nc2ccc(F)cc2)cc1 | -18% | ?
Cc1ccc(C=NNc2ccc([N+](=O)[O-])cn2)cc1 | -14% | -7%
COc1cc(-c2cc(C(=O)Nc3cc(S(=O)(=O)N4CCOCC4)ccc3O)c3ccccc3n2)cc(OC)c1OC | -15% | -6%
O=C(OCc1c(F)cccc1Cl)c1cc([N+](=O)[O-])ccc1N1CCOCC1 | -9% | ?
O=C(CN1C(=O)NC2(CCCCCC2)C1=O)c1ccc(Cl)s1 | -9% | -19%
Cc1ccc(Cn2cc(CN3CC(N4CCN(Cc5ccccc5F)CC4)CS3(=O)=O)nn2)cc1 (configuration not stated) | -18% | -11%
O=C(NCc1n[nH]c(=S)n1-c1cccc(C(F)(F)F)c1)c1ccc(S(=O)(=O)N2CCCCC2)cc1 | 4% | 7%
CN(C(=O)c1nn(C)c2c1CS(=O)(=O)c1ccccc1-2)c1cccc(Cl)c1 | 15%[7.34 µM] | 8%[7.34 µM]
COc1ccccc1N=Nc1c(C)[nH][nH]c1=O | -22% | i
Cc1nc2cc(C)c(C)cc2o1 | -9% | -3%
CCOC(=O)C(NC(C)=O)C(=O)O (configuration not stated) | -5% | -17%[1.46 µM]
COc1ccccc1OCC(=O)Nc1nc(-c2ccc(Br)cc2)ns1 | -5% | -6%
O=C(Nc1ccc2nc(-c3ccccc3)[nH]c2c1)c1cccs1 | -14% | -12%
COc1cccc(NC(=O)CN(C)C(=O)c2cc(-c3ccc(F)cc3)nc3ccccc23)c1 | ? | ?
O=C(Nc1ccc2nc(SCC(=O)N3CCOCC3)sc2c1)c1cccc(Br)c1 | -26% | -24%
Cc1cc(C)cc(NC(=O)CSc2nc3nccnc3c(=O)n2CCc2c[nH]c3ccccc23)c1 | -16% | -12%
Cc1c(CCO)sc[n+]1CC(=O)c1ccc2ccccc2c1 | 2% | 40%[activator]
Cc1cccc(NC(=O)c2ccc(F)c(S(=O)(=O)N3CCC4(CC3)OCCO4)c2)c1 | -19% | -19%
Cn1c(=O)n(Cc2ccc(F)cc2)c(=O)c2c1nc1n2CCCN1C1CCCCC1 | -9% | -14%
Cc1cn(CC(=O)NCCCn2ccnc2)c(=O)[nH]c1=O | -6% | -7%
CC[C@@H](C)[C@H](CN[C@H](CNC)C(C)C)NC[C@@H](C)c1ccc(CC(C)C)cc1 | ? | ?
CC(C)C(NC(=O)C1CCC(C(C)(C)C)CC1)C(=O)NCc1cccnc1 (configuration not stated) | -15% | -20%
Cc1ccccc1SCC(=O)N/N=C/c1ccc(F)cc1 | -10% | -18%
Cc1cc(NC(=O)c2cccc3c2C(=O)N(C2CCCCC2)C3)ccc1Br | -13% | i
O=C(Nc1ccc2nsnc2c1)N1CCCCC1 | -4% | -10%
O=C1C2CCCN2C(c2ccc(F)cc2)N1c1ccc(Cl)cc1 (configuration not stated) | -1% | -5%
CC(NC(=O)c1ccc2c(c1)CCN2S(=O)(=O)c1ccc(Cl)cc1)c1ccccc1 (configuration not stated) | -4% | -12%
O=C(CCNS(=O)(=O)c1cccc(Cl)c1)OCC(=O)N1CCN(C(=O)c2ccco2)CC1 | 2% | -6%
CC(C)(C)[C@H]1C=C(C(=O)N2CCN(Cc3ccccc3)CC2)O[C@@H](OCc2ccc(CO)cc2)C1 | -28% | i
OCCCc1nc2ccccc2n1CCOc1ccccc1 | -9% | -2%
O=C(NCCCN1CCCC1=O)c1ccccc1OCc1ccc(Cl)cc1Cl | -19% | -13%
CCc1cccc(C)c1NC(=O)c1cc(S(=O)(=O)N2CCN(c3ccccc3)CC2)ccc1F | -3% | -18%

Three compounds out of the list, ordered by molecular weight, smallest number first:
SMILES | Vaccinia Venus | VACV mCherry inh
OCCCc1nc2ccccc2n1CCOc1ccccc1 | -9% | -2%
CC(C)C(NC(=O)C1CCC(C(C)(C)C)CC1)C(=O)NCc1cccnc1 (configuration not stated) | -15% | -20%
CC(NC(=O)c1ccc2c(c1)CCN2S(=O)(=O)c1ccc(Cl)cc1)c1ccccc1 (configuration not stated) | -4% | -12%

Next section
SMILES | Vaccinia Venus | VACV mCherry inh
O=C(CCl)N=c1sccn1Cc1ccccc1Cl | -17% | i
Cc1ccc(NC(=O)c2ccccc2Br)cc1S(=O)(=O)N(C)C | -7% | -2%
O=C(CC1S/C(=N\S(=O)(=O)c2ccccc2)N(c2ccccc2)C1=O)Nc1ccc(F)cc1 (configuration not stated) | -13% | -11%
Cc1cccc(N2C(=O)C3C4C=CC(C5CC45)C3C2=O)n1 (configuration not stated) | 4% | -7%
CCOC(=O)CCc1c(C)nc2cc(-c3ccccc3OC)[nH]n2c1=O | -9% | -18%
CC(C)(C)c1nnc(NC(=O)C2CCN(C(=O)c3ccco3)CC2)s1 | -13% | -9%
Cc1ccc(NC(=O)CCc2nc(-c3ccccc3F)no2)c(C)c1 | 7% | -3%
CN(Cc1ccccc1)C(C(=O)NC1CCCCC1)c1ccc(Cl)cc1 (configuration not stated) | 0% | -7%
CCOc1ccc(Cn2nnc(C(=O)Nc3cc(C)cc(C)c3)c2N)cc1 | -15% | -17%
COc1cc2nc(=S)n3[nH]c(COc4ccccc4C)nc3c2cc1OC | 1% | -11%
COc1ccc(OC)c(S(=O)(=O)Nc2cc3c(C(C)=O)c(C)oc3c3ccccc23)c1 | -2% | 2%
O=c1oc2cc(O)ccc2c2oc3cc(O)ccc3c12 | -4% | -12%
Cc1cc(C)c(OCCNCc2ccccc2)c(C)c1 | -16% | -1%
CC1=NN(c2nc3ccccc3[nH]2)C(=O)/C1=C/N(C)C | -12% | i
Cc1cccc(C(=O)NNC(=O)c2ccc(Cl)cc2)c1O | -14% | -14%
NC(=O)CC(NC(=O)c1cccc(Br)c1)c1ccc(N2CCCCCC2)c([N+](=O)[O-])c1 (configuration not stated) | -11% | -11%
O=c1cc2c(c(-c3ccccc3)n1Cc1ccccc1)[C@H](CCO)NC2 | -3% | -10%
CN1CCN(C(=O)c2cnn(-c3ccccc3)c2NC(=O)c2ccc([N+](=O)[O-])cc2)CC1 | 14% | -25%
CCc1nc2ccc(C(=O)N3CCN(S(=O)(=O)CC)CC3)cn2c1N(CC)CCOC | 18% | 37%[activator]
COc1ccc(CCNC(=O)CSc2nnc(-c3ccc(F)cc3)c3ccccc23)cc1OC | -18% | i
COc1ccc(/C=C/C(=O)NC2CCS(=O)(=O)C2)cc1 (configuration not stated) | -2% | -7%
CCOC(=O)c1cccc(NS(=O)(=O)c2ccc(-c3coc(C)n3)cc2)c1 | 3% | 1%
O=C(NCc1ccco1)c1cc(S(=O)(=O)N2CCOCC2)ccc1Br | -8% | i
Cc1ccccc1CC1(CO)CCCN(C(=O)c2cc(-c3ccccc3)no2)C1 (configuration not stated) | -18% | i
Cc1cc(C(=O)N2CCc3ccccc3C2)c(C)o1 | -12% | i
CCN(CC(=O)Nc1c(F)cccc1F)C(=O)CCC(=O)c1ccc(C)cc1 | -26% | -8%
CCCCC(=O)Nc1ccc(C(=O)NNC(=O)CCc2ccccc2)cc1 | -6% | i
O=C(CNC(=O)c1[nH]cnc1C(=O)NC(c1ccccc1)c1ccccc1)OCc1ccccc1 | -6% | -1%

Grouped by structure, those above with a Cl atom
SMILES | Vaccinia Venus | VACV mCherry inh
CN(CCc1ccccn1)C1CCCN(S(=O)(=O)c2ccc(F)c(Cl)c2)C1 (configuration not stated) | -17% | ?
CC(/C=C/c1ccccc1F)=N\NC(=O)c1ccc(Cl)cc1 | -2% | -16%
N#C/C=C\Oc1ccc(Cl)cc1N | -15% | ?
N#Cc1sc(NCc2ccccn2)nc1Cl | 9% | -2%
Cc1ccc(NC(=O)c2ccc(N3C(=O)C4CC=C(Cl)CC4C3=O)cc2)cc1 (configuration not stated) | -9% | -17%
O=C(OCc1c(F)cccc1Cl)c1cc([N+](=O)[O-])ccc1N1CCOCC1 | -9% | ?
O=C(CN1C(=O)NC2(CCCCCC2)C1=O)c1ccc(Cl)s1 | -9% | -19%
CN(C(=O)c1nn(C)c2c1CS(=O)(=O)c1ccccc1-2)c1cccc(Cl)c1 | 15%[7.34 µM] | 8%[7.34 µM]
O=C1C2CCCN2C(c2ccc(F)cc2)N1c1ccc(Cl)cc1 (configuration not stated) | -1% | -5%
CC(NC(=O)c1ccc2c(c1)CCN2S(=O)(=O)c1ccc(Cl)cc1)c1ccccc1 (configuration not stated) | -4% | -12%
O=C(CCNS(=O)(=O)c1cccc(Cl)c1)OCC(=O)N1CCN(C(=O)c2ccco2)CC1 | 2% | -6%
O=C(NCCCN1CCCC1=O)c1ccccc1OCc1ccc(Cl)cc1Cl | -19% | -13%
O=C(CCl)N=c1sccn1Cc1ccccc1Cl | -17% | i
CN(Cc1ccccc1)C(C(=O)NC1CCCCC1)c1ccc(Cl)cc1 (configuration not stated) | 0% | -7%
Cc1cccc(C(=O)NNC(=O)c2ccc(Cl)cc2)c1O | -14% | -14%
